# VDR inhibitor = vitamin D3 receptor (human) inhibition | P11473 | VDR-SRC2-3 peptide fluorescence polarization, 2 h | Potency, µM, for inactives: max response, negative = inhibition, most hits filed as inhibitors | AID 504847 | actives 0.93% (n = 400,000); active = well fitted inhibition curve with a large enough effect; inconclusive = small, poorly fitted or top-dose-only effect, or another doubt; inactive = no such curve, though single readings can be large or run the other way; note: series mostly up to about 120 µM
# Target sequence (P11473 whole entry, looked up): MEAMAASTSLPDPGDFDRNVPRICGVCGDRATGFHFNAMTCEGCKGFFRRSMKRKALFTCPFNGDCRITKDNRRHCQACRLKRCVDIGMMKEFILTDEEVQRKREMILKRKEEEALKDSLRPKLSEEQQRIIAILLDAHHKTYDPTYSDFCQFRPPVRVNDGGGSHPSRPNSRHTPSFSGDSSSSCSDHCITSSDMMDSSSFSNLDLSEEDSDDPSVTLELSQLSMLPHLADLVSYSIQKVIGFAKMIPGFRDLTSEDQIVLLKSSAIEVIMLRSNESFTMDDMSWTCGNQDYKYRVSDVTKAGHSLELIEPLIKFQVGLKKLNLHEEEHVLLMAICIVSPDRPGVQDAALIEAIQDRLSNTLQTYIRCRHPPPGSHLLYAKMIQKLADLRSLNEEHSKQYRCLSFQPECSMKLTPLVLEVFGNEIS
#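 Fluorescence polarization assay of small-molecule disruption of VDR binding to coregulator peptide SRC2-3. Compounds and controls pin-transferred, then read after 2 h incubation at ambient room temperature.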
# The depositor's hits bear a star; ? = inconclusive; & = joins results of further samples. % is set by controls: 0 for no effect and ±100 for the full control effect; potency is the fitted concentration of half-maximal effect. An excerpt. The share of hits here may be higher or lower than overall.
cpd	Structure	VDR inhibitor
1	CC(=O)c1ccc(NC(=O)CSc2nccn2CCc2ccccc2)cc1	22%
2	Cc1cccc(-n2cnc(C(=O)N3CCN(C)CC3)c2)n1	-2%
3	CN(CCCC(=O)Nc1ccccc1)S(=O)(=O)c1ccc(Cl)cc1	-6%
4	Cc1cccc(C(=O)N2CC(=O)Nc3ccc(F)cc3C2c2ccc(F)cc2)c1 (stereo unspecified)	7%
5	CCCc1nc2ccc(N)cc2c(=O)n1Cc1ccccc1Cl	-1%
6	O=C1NC(=O)C(c2ccccc2)N1 (stereo unspecified)	-4%
7	CC1CCCC(C)N1C(=O)COC(=O)C1CCN(S(=O)(=O)c2c(Cl)cccc2Cl)CC1 (stereo unspecified)	6%
8	COc1ccccc1/C=C/C(=O)OCC(=O)Nc1c(C)nn(-c2ccccc2)c1C	14%
9	CC(NS(=O)(=O)c1ccc(Br)cc1)C(=O)NCCc1ccccc1 (stereo unspecified)	7%
10	COc1ccc(N2C(=O)/C(=C3/C=CC=CN3C)SC2=S)cc1	?
11	Cc1c(C)n(Cc2ccccc2)c2ccc(C(=O)NC(C)c3ccccc3)cc12 (stereo unspecified)	10%
12	CC(C)N(Cc1ccccc1)C(=O)COC(=O)c1cnc(Cl)c(Cl)c1	2%
13	COc1ccc(CCNC(=O)c2oc3ccc(S(=O)(=O)N4CCOCC4)cc3c2C)cc1OC	-4%
14	CCN1C(=O)c2ccccc2S(=O)(=O)c2ccc(C(=O)NCc3ccc(F)cc3)cc21	0%
15	O=C(CSC1=NCCS1)N1CCCC1	12%
16	CCOC(=O)N1CCN(C(=O)c2ccc(N3CC4CC(C3)c3cccc(=O)n3C4)c(NC(=O)c3ccc(F)cc3)c2)CC1 (stereo unspecified)	8%
17	O=C(CSc1ccc(Cl)cc1)Nc1nnc(-c2ccco2)o1	-13%
18	Cc1ccc(S(=O)(=O)CCC(=O)Nc2sccc2C(N)=O)cc1	0%
19	CCN(CC)C(=O)CN1CCC(c2nc3cc(C)c(C)cc3[nH]2)CC1	0%
20	Cc1ccccc1-n1nc(-c2ccc(N)cc2)cc1N	-1%

# Part of the list above, with each value named:
10) COc1ccc(N2C(=O)/C(=C3/C=CC=CN3C)SC2=S)cc1
  VDR inhibitor: ?
11) Cc1c(C)n(Cc2ccccc2)c2ccc(C(=O)NC(C)c3ccccc3)cc12 (stereo unspecified)
  VDR inhibitor: 10%
12) CC(C)N(Cc1ccccc1)C(=O)COC(=O)c1cnc(Cl)c(Cl)c1
  VDR inhibitor: 2%
13) COc1ccc(CCNC(=O)c2oc3ccc(S(=O)(=O)N4CCOCC4)cc3c2C)cc1OC
  VDR inhibitor: -4%

# Further entries:
cpd	Structure	VDR inhibitor
21	COc1ccccc1CNC(=O)CCCNS(=O)(=O)c1cccc2nsnc12	-10%
22	CCOC(=O)N1CCC(n2c(SCC(=O)c3ccccc3)nc3ccsc3c2=O)CC1	-5%
23	Cc1ccc2c(c1)N(C(=O)CCC(=O)NCc1cccs1)CC(C)O2 (stereo unspecified)	-2%
24	COC(=O)c1cc(C)nc2c1c(C)nn2-c1ccccc1	-2%
25	CC(=O)OC12CC3CC(C1)C(=NO)C(C3)C2	-13%
26	O=C(COC(=O)c1cc[n+]([O-])cc1)NCC12CC3CC(CC(C3)C1)C2	0%
27	COc1ccc(OC)c(/C=C/C(=O)c2ccc3c(c2)OCCO3)c1	?
28	COC(=O)c1cc(C(=O)Nn2cnnc2)cc([N+](=O)[O-])c1	-4%
29	C[C@]12CC[C@H](O)CC1=CCC1C2CC[C@@]2(C)C1CCC21OCCO1 (stereo partly specified)	1%
30	C#Cc1cccc(C(=O)N2CCCC(Nc3cccc(F)c3)C2)c1 (stereo unspecified)	-17%
31	Cc1ccc(S(=O)(=O)Nc2ncnc3ccccc23)cc1	11%
32	Cc1cccc(Cn2c(=O)n(CC3CCC(C(=O)NC(C)C)CC3)c(=O)c3sccc32)c1 (stereo unspecified)	-10%
33	CCS(=O)(=O)N1CCC(NC(=O)c2ccco2)CC1	-3%
34	N=c1n(CCCOc2ccc(F)cc2)c2ccccc2n1CC(N)=O	9%
35	CC(Cc1c[nH]c2ccccc12)NC(=O)OCCCl (stereo unspecified)	-20%
36	N/C(Cc1ccc([N+](=O)[O-])cc1)=N\OC(=O)c1ccc([N+](=O)[O-])cc1	-26%
37	COc1ccccc1C(=O)COC(=O)c1cc([N+](=O)[O-])ccc1N1CCOCC1	-13%
38	Cc1nn(C)cc1S(=O)(=O)N1CCN(c2ccc(F)cc2)CC1	-4%
39	Fc1ccc(-c2nc(-c3cccs3)c(-c3cccs3)[nH]2)cc1	-8%
40	c1ccc(-c2ncnc3ccccc23)cc1	4%
41	CCOC(=O)[C@H](CCc1ccccc1)N[C@@H](C)C(=O)N1[C@H](C(=O)O)C[C@@H]2CCC[C@@H]21	6%
42	COc1ccc(C2OC3C(CO)OC(n4cnc5c(=O)[nH]c(N)nc54)C3O2)cc1 (stereo unspecified)	13%
43	COC(=O)CN1C(=O)C2(OCCCO2)c2ccccc21	0%
44	O=C(OCC(=O)N1CCc2ccccc21)c1ccc[nH]c1=O	-5%
45	COc1ccc(NS(=O)(=O)c2cc(N)ccc2N2CCCCC2)cc1	-2%
46	CC(=O)Nc1cccc(C(=O)OCC(=O)N2CCC(c3ccccc3)=N2)c1	11%
47	COc1ccccc1NC(=O)Cc1noc(CSc2nnc(C)n2C)n1	-3%
48	Nc1nonc1-n1nnc(C(=O)N/N=C/c2ccoc2)c1CSc1ccc(Cl)cc1	-10%
49	CCC12C(=O)C(CC)(C(c3ccccc3)=C1c1ccccc1)[C@@H]1C(=O)N(c3ccc(C)cc3)C(=O)C12 (stereo partly specified)	5%
50	Cc1cc(N(CCO)CCO)ccc1N=Nc1cc(F)ccc1F	-17%
51	COc1ccc(-c2csc(NC(=O)c3ccccc3Br)c2C(=O)O)cc1	-14%
52	COc1ccc(-c2nc3ccccc3nc2-c2ccccc2)cc1OC	4%
53	O=C(c1ccc(C(F)(F)F)cc1)N1CCC(=O)N(C(CO)Cc2ccccc2)CC1 (stereo unspecified)	-17%
54	Cc1ccccc1N=Cc1ccc[nH]1	0%
55	CC(C)N1C(=O)CCC1C(=O)N1CCN(c2ccccn2)CC1 (stereo unspecified)	-4%
56	Cc1ccccc1OCC(=O)N(Cc1ccc(C(C)C)cc1)C1CCS(=O)(=O)C1 (stereo unspecified)	-11%
57	Cc1ccccc1N1C(S)=C(C#N)C(=O)NC12CCCCC2	32µM*
58	CC(C)(C)S(=O)(=O)/C(C#N)=N/Nc1ccc(S(C)(=O)=O)cc1	-4%
59	CCOC(=O)C1=C(N)OC2=C(C(=O)CCC2)C1c1ccco1 (stereo unspecified)	-24%
60	COC(=O)c1ccc(Cn2c(SCc3ccccc3)nc3ccncc32)cc1	9%

# As a short view, part of the list above.
cpd	Structure	VDR inhibitor
52	COc1ccc(-c2nc3ccccc3nc2-c2ccccc2)cc1OC	4%
53	O=C(c1ccc(C(F)(F)F)cc1)N1CCC(=O)N(C(CO)Cc2ccccc2)CC1 (stereo unspecified)	-17%
54	Cc1ccccc1N=Cc1ccc[nH]1	0%
55	CC(C)N1C(=O)CCC1C(=O)N1CCN(c2ccccn2)CC1 (stereo unspecified)	-4%
56	Cc1ccccc1OCC(=O)N(Cc1ccc(C(C)C)cc1)C1CCS(=O)(=O)C1 (stereo unspecified)	-11%

# (continued)
cpd	Structure	VDR inhibitor
61	COc1ccc(/C=C/C=N/NC(=O)COc2ccc(OC)cc2)cc1	-3%
62	CC(OC(=O)c1ccc2c(=O)n3c(nc2c1)CCCCC3)C(=O)Nc1ccc(F)cc1Cl (stereo unspecified)	1%
63	Cc1cccc(/N=C/c2sc3ccccc3c2O)n1	?
64	COc1ccccc1-n1nnnc1SCC(=O)NC1CCCCC1	5%
65	O=C(CN1CCN(S(=O)(=O)c2ccc(Br)cc2)CC1)c1ccc(O)c(O)c1	2%
66	CCC1CCC(C(=O)NC(C(=O)NCCc2ccc(S(N)(=O)=O)cc2)C(C)C)CC1 (stereo unspecified)	-11%
67	CCC(C)CNC(=O)c1cccc(OC2CCN(CC(C)(C)C)CC2)c1 (stereo unspecified)	8%
68	CCc1ccc(NC(=O)Cn2nc(C)n3cccc3c2=O)cc1	6%
69	Cc1ncc[nH]1	-16%&1%
70	CCCCn1cnc2c(SCCc3ccccc3)nc(N)nc21	5%
71	Cc1nnc(N2CCCC(C(=O)NCc3cccc(F)c3)C2)c2nn(-c3ccccc3)c(C)c12 (stereo unspecified)	5%
72	O=S(=O)(c1ccc(Cl)cc1)n1cnc2ccccc21	-1%
73	Oc1c(CN2CCN(c3ccccc3)CC2)cc(Br)c2cccnc12	-9%
74	Cc1ccccc1OCC(=O)NCCCNC(=O)c1ccncc1	1%
75	Cc1ncc([N+](=O)[O-])n1CC(=O)Nc1cccc(C(F)(F)F)c1	-19%
76	CN(C)c1cccc(C(=O)NCc2ccc(Cl)cc2)c1	-11%
77	N=c1c2c(-c3ccccc3)c(-c3ccccc3)n(Cc3ccco3)c2ncn1CCO	-15%
78	COc1ccc(NCc2nnc(SCC(=O)c3ccc(OC)cc3)o2)cc1	-21%
79	CCC(CC)c1nnc(NC(=O)c2nc3nc(C)cc(C)n3n2)s1	7%
80	O=C(CN(C(=O)c1csnn1)c1cccc(Cl)c1)NCCc1ccccc1	-16%
81	Cc1ccccc1NC(=O)C1CCC(CNS(=O)(=O)c2ccc3c(c2)C(C)(C)C(=O)N3C)CC1 (stereo unspecified)	5%
82	CCOC(=O)c1sc(Nc2nc3ccc(OC)cc3s2)cc1C	3%
83	Cc1ccc(-c2csc(-c3c[nH]c4ccccc34)n2)cc1	9%
84	COc1ccc(CN2c3cc(S(=O)(=O)N4CCOCC4)ccc3N3CCCC32)cc1 (stereo unspecified)	12%
85	Clc1ccc(C(c2nnnn2C2CCCC2)N2CCN(Cc3ccncc3)CC2)cc1 (stereo unspecified)	-6%
86	COc1cccc(/C=N/N2C(=O)NC3(CCCCC3)C2=O)c1O	-14%
87	CCN(C(=O)COC(=O)/C(=C/c1ccccc1)n1nnnc1C)C1CCCCC1	?
88	OCC1OC2C(NC(=S)N2c2ccccc2)C(O)C1O (stereo unspecified)	-20%
89	CCc1ccccc1OCC(=O)N1CCN(c2ncccn2)CC1	-7%
90	Cc1ccc(S(=O)(=O)Nc2ccccn2)cc1[N+](=O)[O-]	5%
91	Cc1ccccc1CO/N=C/c1[nH]ncc1Br	-5%
92	Oc1ccccc1N=Nc1ccccc1O	11%
93	Cc1nc(C)c(C(=O)Nc2nc3c(C)cccc3s2)o1	5%
94	NS(=O)(=O)c1ccc(CCNC(=O)CSc2nc3ccccc3c3nc(CCN4CCCCC4)nn23)cc1	7%
95	CC(=O)NC1CC2CCCC(C1)N2C(=O)Nc1cccc(C)c1 (stereo unspecified)	-17%
96	COc1cccc(/C=C2/C(=O)NN(c3ccccc3)C2=O)c1	?
97	CCOc1ccc(-n2c(SCC(=O)Nc3cc(OC)c([N+](=O)[O-])cc3C)nc3ccccc32)cc1	-5%
98	NC(=O)c1cc(Br)cc2c3c([nH]c12)CCCC3	-30%
99	CC(NCCc1ccc(S(N)(=O)=O)cc1)C(=O)NCc1ccccc1 (stereo unspecified)	3%
100	O=C(Cc1ncn[nH]1)NCCc1ccccc1	0%
101	COC(=O)c1c(NC(=O)Cc2ccccc2)sc2c1C(C(=O)OC)CC2 (stereo unspecified)	14%
102	CCCSC1=C(C#N)C(c2ccccc2C)C(C(=O)OC)C(=O)N1 (stereo unspecified)	-10%
103	Cc1[nH]nc(S(=O)CC(=O)O)c1[N+](=O)[O-] (stereo unspecified)	6%
104	COc1cc(C(=O)Nc2ccc(N3CCCS3(=O)=O)cc2)c([N+](=O)[O-])cc1OC	-30%
105	Cc1cccn2c(=O)c(C=O)c(Cl)nc12	?
106	CCOC(=O)c1c(C)n(S(=O)(=O)c2ccc(C)cc2)c2ccc(NS(=O)(=O)c3ccc(C)cc3)cc12	-16%
107	N#CCc1ccc(NS(=O)(=O)c2ccc(N3CCCC3=O)cc2)cc1	-13%
108	CCOC(=O)Cn1cnc2c(cnn2-c2ccc(C)c(C)c2)c1=O	15%
109	O=C(O)c1cccc2[nH]c(C(F)(F)F)nc12	-11%
110	C[C@H](CO)N1C[C@H](C)[C@@H](CN(C)C(=O)NC2CCCCC2)Oc2ccc(NC(=O)C3CC3)cc2C1=O	-4%
111	O=[N+]([O-])c1ccc(-c2nc(-c3ccc(F)cc3)c(-c3ccncc3)[nH]2)cc1	-29%&-13%
112	Cc1cc(C)cc(NC(=O)c2c(C)oc3nc(C)nc(N4CCCC4)c23)c1	16%
113	C=CC#CC1(O)CC(C)N(C)CC1C (stereo unspecified)	-20%
114	Cn1c(SCC(=O)N/N=C/c2cccs2)nc2ccccc21	-1%
115	Cc1ccc(-c2nc(N)sc2-c2ccc(C)cc2)cc1	6%
116	Cc1nc2ccccc2n1CC(=O)NC(C)C1CC2CCC1C2 (stereo unspecified)	4%
117	Cc1ccc(CCNC(=O)c2oc(=O)c3ccccc3c2-c2ccc(C)cc2)cc1	-18%
118	Cc1cc(C)c2nc(NC(=O)c3ccc4c(c3)OCO4)sc2c1	-1%
119	CC(C)(C)NC(=O)NC(=O)COC(=O)Cc1c(F)cccc1Cl	-21%
120	O=S(=O)(c1ccccc1)[C@@]1(c2ccccc2)C[C@@H]2ON=C(c3cccc(Br)c3)[C@@H]2C1	?

# Following part.
cpd	Structure	VDR inhibitor
121	COc1ccc(NC(=O)CN(C)CC(=O)N(CC(C)C)c2c(N)n(CC(C)C)c(=O)[nH]c2=O)cc1	4%
122	NC(=O)c1ccccc1NC(=O)CSc1nc2c(c(=O)[nH]1)CCCC2	3%
123	COc1ccc(C(=O)CSc2ccc(-c3ccc(C)cc3)nn2)cc1	-9%
124	Cn1c(=O)c2c(ncn2CCOc2ccc(F)cc2)n(C)c1=O	-5%
125	COc1ccc(NC(=O)Nc2cccc3c2O[C@H](CN(C)C(=O)Nc2ccc(OC)cc2)[C@@H](C)CN([C@H](C)CO)C3=O)cc1	-4%

# High-throughput results from PubChem BioAssay.
